Bioassay records: PubChem BioAssay, several laboratories
A1 inh: caspase 3/7 activation in MEF A1-2A-BIM cells, primary screen, A1 inhibitor project, cell-based, luminescence, HTS; Caspase-Glo 3/7 luminescence, 3 h; percent of clofoctol response, vehicle zero; caspase activation, % (test concentration not listed); 330,000 tested, 0.066% active;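 active = over half of replicate activation scores above 10%, or exactly half above 10 with the replicate mean above 10; inconclusive = replicate mean below 10 yet half the replicates above 10; inactive = over half of replicates below 10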;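 also: wells of about 30 µL received 50 nL stock; many hits fall short of the cut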
LANA-H2A inh: blockers of LANA interaction with H2A/H2B – biochemical, FP readout, HTS, primary screen. cell-free LANA-H2A/H2B peptide, fluorescence polarization. inhibition, % (no concentration beside the values). 320,000 tested, 0.6% active; in the data active = inhibition mostly above about 10%, no sharp cut-off; inactive = mostly below about 6.7%;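 also: stock transfer was 7.5 nL into about 10 µL; 0% = median of vehicle wells and 100% = median of positive control wells; one replicate is shown; the record names a cut of 25% in any replicate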
Vif A3G: inhibitors of Vif binding to APOBEC3G peptide, primary screen, biochemical, TR-FRET, GST-Vif 1-94, biotin-A3G peptide, dose response retest (AID 1117319); Virion infectivity factor (Human immunodeficiency virus type 1 group M subtype B (isolate …; TR-FRET GST-Vif / biotin-A3G peptide binding; higher % means a stronger effect; test concentration not given here; strong numbers were not always called active; inhibition, %; hits with a dose series show IC50 in µM; 260,000 tested, 0.57% active;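 active = above the screen mean plus three standard deviations and confirmed in dose response; inconclusive = results disagree or hit not tested in dose response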;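 also: Vif residues 1-94 fused to GST binding biotinylated APOBEC3G peptide 110-148; 0% = full assay without inhibitor and 100% = GST in place of GST-Vif; retest series ran down from 100 µM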
Calb FLC: C. albicans growth inhibition with fluconazole, primary screen, CaCi-2 strain, Alamar Blue fluorescence | growth inhibition, % (test concentration not listed) | C. albicans CaCi-2 (fluconazole-resistant clinical isolate) + fluconazole, 48 h | 300,000 tested, 0.57% active;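 active = most replicates above 75%; inconclusive = exactly half above 75%; inactive = most below 75%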;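 also: all wells also contain fluconazole at 8 µg/ml as a sub-toxic cotreatment; 0% = median of DMSO wells and 100% = median of geldanamycin control wells; wells of about 8 µL received 7.5 nL stock; the first replicate is given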
MLL AF4-AF9 inh: inhibitors of AF4 peptide binding to AF9, primary screen, biochemical, AlphaScreen, biotin-AF4 peptide, FLAG-AF9, single point. 350,000 tested, 0.47% active. inhibition, % at 10 µM. Protein AF-9 (Homo sapiens), P42568. AID 651704, 2012;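 active = every replicate reaching a set inhibition limit, whatever the replicate mean, cut at about 25% in these data; inconclusive = mean inhibition reaches that limit but some replicates miss it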;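 also: 0% = plate neutral control median and 100% = total signal loss; the record names both 10 and 1 µM as test concentration; the first replicate is given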
Target sequence (P42568 whole entry, looked up): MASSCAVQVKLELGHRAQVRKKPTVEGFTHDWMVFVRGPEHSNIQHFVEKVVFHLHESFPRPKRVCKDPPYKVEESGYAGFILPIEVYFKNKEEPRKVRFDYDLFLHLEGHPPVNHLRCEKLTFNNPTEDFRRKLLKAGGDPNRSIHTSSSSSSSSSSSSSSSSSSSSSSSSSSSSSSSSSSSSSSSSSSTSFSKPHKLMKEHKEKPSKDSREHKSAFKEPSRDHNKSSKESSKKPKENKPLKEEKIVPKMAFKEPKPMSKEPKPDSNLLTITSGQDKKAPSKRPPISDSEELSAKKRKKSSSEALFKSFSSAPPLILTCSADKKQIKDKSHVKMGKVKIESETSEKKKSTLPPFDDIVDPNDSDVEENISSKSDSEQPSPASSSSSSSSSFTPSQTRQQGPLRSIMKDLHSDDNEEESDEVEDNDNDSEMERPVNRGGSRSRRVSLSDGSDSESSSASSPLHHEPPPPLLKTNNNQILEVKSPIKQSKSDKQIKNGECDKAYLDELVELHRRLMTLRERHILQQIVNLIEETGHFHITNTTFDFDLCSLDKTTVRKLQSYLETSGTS
T cruzi inh: inhibitors of intracellular T. cruzi growth, primary screen, luminescence, NIH3T3 host cells; T. cruzi beta-gal in NIH3T3, 90 h; inhibition, % (no concentration beside the values); 300,000 tested, 1.4% active; AID 1885, 2009;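 active = mean inhibition across valid replicates above about 55%, limit read from the data; inconclusive = mean below that limit but half or more replicates reach it; inactive = mean below it, under half of replicates reach it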;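 also: signal also drops with host cell toxicity which is not excluded here; 0% = plate median of DMSO wells and 100% = zero luminescence signal; higher percent means less beta-gal luminescence so fewer parasites; stock transfer was 50 nL into about 50 µL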
RanGTP-Imp inh: inhibitors of RanGTP-importin-beta interaction, primary screen, biochemical, FRET, CFP-Ran, YFP-importin-beta, homogeneous; Ran GTPase (GTP-bound) - importin-beta complex; cell-free CFP-Ran/YFP-importin-beta FRET ratio; inhibition, % (no concentration beside the values); 300,000 tested, 1.1% active; AID 2216, 2009;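 active = most replicates above 15%; inconclusive = exactly half above 15%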;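 also: 0% = DMSO wells and 100% = Ran loaded with GDP instead of GTP; wells of about 40 µL received 100 nL stock; the first replicate is given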
Beta apoptosis: inhibitors of cytokine-induced beta cell apoptosis, primary screen, luminescence. INS-1E cytokine-induced death, ATP luminescence, 48 h; percent of positive-control rescue, neutral wells zero. protection from apoptosis, % (test concentration not listed). 300,000 tested, 0.8% active. AID 435005, 2010;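 active = all replicates at 75% or more, or half of them and the mean; inconclusive = half reach 75% but not the mean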;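 also: 0% = cytokine-treated negative control wells and 100% = positive control rescue; higher means more ATP so stronger rescue from cytokine killing; wells of about 40 µL received 100 nL stock; the first replicate is given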
Starred values were filed as active, the others as inactive; u = inconclusive; x = not tested or not shown. Compounds as they come; about 4.3% have a hit in one of these screens.

SMILES	A1 inh	LANA-H2A inh	Vif A3G	Calb FLC	MLL AF4-AF9 inh	T cruzi inh	RanGTP-Imp inh	Beta apoptosis
CC/C(C)=N/Nc1nc2c(c(=O)[nH]c(=O)n2C)n1Cc1ccccc1	0.6	0.0	14%	0	4.9	6	1.8	-3
O=C(CSc1nnc(-c2ccncc2)n1-c1ccccc1)NCC1CCCO1 (stereo not drawn)	0.8	-3.7	x	x	-0.8	x	x	-5
COc1ccc(CCN(Cc2cc3cccc(C)c3[nH]c2=O)C(=O)NC2CCCCC2)cc1OC	-0.2	-4.2	1%	10	x	24	0.6	0
C/C(CCc1ccc2c(c1)OCO2)=N\N=C1\NC(=O)CC(C(=O)Nc2ccc(Cl)cc2)S1 (stereo not drawn)	1.6	0.9	u	13	-3.5	22	2.0	-2
COC(=O)[C@@H](NC(=O)N(C1CCCCC1)C1CCCCC1)C(C)C	-0.2	-4.5	1%	0	x	3	u	-4
CC(=O)Nc1ccc(NC(=O)c2c([N+](=O)[O-])cnn2C)cc1	1.0	2.8	x	-4	-1.4	-14	0.2	2
CCOC(=O)c1nnn2c1nc(N1CCOCC1)c1ccccc12	-0.2	-1.6	-7%	1	1.6	-1	-1.6	4
CCOC(=O)c1ccccc1NC(=O)CN1C(=O)CCS(=O)(=O)c2ccccc21	x	x	23%	-2	x	14	4.4	x
Cc1nn(C)c(C(=O)N/N=C/c2ccc(Br)cc2)c1Cl	0.0	-5.5	2%	-24	0.3	-9	0.2	2
OCC1CCN(Cc2cn(Cc3ccccc3)nc2-c2cc3ccccc3o2)CC1	-0.1	1.9	2%	-1	1.7	8	1.8	-7
O=C(O)CSc1ccccn1	0.4	-4.0	-4%	-8	x	-9	3.5	-7
CCC1(C)Cc2ccccc2-c2nc(NCCCO)n(C)c(=O)c21 (stereo not drawn)	0.0	2.5	-5%	27	1.9	x	3.1	-12
Cc1ccc(C(=O)C[n+]2cc(-c3ccc(C)cc3)n3c2CCCCC3)cc1	-0.9	7.5	u	88*	x	69*	4.4	125*
CC(=O)Nc1ccc(NC(=O)CSc2nnc(-c3ccco3)n2Cc2ccco2)cc1	0.2	-1.8	4%	13	x	-2	-3.4	3
CC1CCN(c2ccc(S(=O)(=O)N3CCC(C)CC3)cc2N)CC1	0.1	-1.6	1%	-21	1.3	-20	-0.2	27
Nc1nonc1N1CCCCC1	0.2	3.5	2%	-2	x	-20	1.7	2
COc1ccc(N2CCN(C(=O)c3cc(=O)c4ccc(C)cc4o3)CC2)cc1	0.5	1.7	0%	0	3.4	2	-11	-2
CO[C@@]1(NC(=O)Cc2cccs2)C(=O)N2C(C(=O)O)=C(COC(N)=O)CS[C@@H]21	1.0	-9.8	u	-1	-2.5	-9	4.4	1
COc1cc(/C=C(\C#N)C(=O)NCc2cccs2)ccc1O	0.7	2.8	-2%	3	x	-3	4.4	x
COc1cc(S(=O)(=O)Nc2ccc3cn[nH]c3c2)ccc1Cl	-0.1	0.3	19%	-1	-7.9	-28	-0.6	x
O=C(Nc1cc(Cl)cc(Cl)c1)C1CCC(=O)N1Cc1ccccc1Cl (stereo not drawn)	x	3.8	-8%	3	x	15	0.5	6
NS(=O)(=O)c1ccc(CNC(=O)c2cc(=O)c3ccccc3o2)cc1	-0.8	0.9	-5%	-5	-9.1	3	-5.4	4
CC(C)(C)c1nc(SCC(=O)NC2CCCC2)c2ccccc2n1	0.1	-2.1	x	-15	-1.9	13	u	-4
CCCc1cc(=O)oc2c(C)c(OCC(=O)NCCCN3CCOCC3)ccc12	-0.3	1.5	x	0	-2.2	-10	-0.7	x
O=C(c1cccc(F)c1F)N1CCCC1	3.4	-2.1	3%	6	x	3	6.5	2

Pulled one by one from above:
SMILES	A1 inh	LANA-H2A inh	Vif A3G	Calb FLC	MLL AF4-AF9 inh	T cruzi inh	RanGTP-Imp inh	Beta apoptosis
COc1cc(/C=C(\C#N)C(=O)NCc2cccs2)ccc1O	0.7	2.8	-2%	3	x	-3	4.4	x
CC1CCN(c2ccc(S(=O)(=O)N3CCC(C)CC3)cc2N)CC1	0.1	-1.6	1%	-21	1.3	-20	-0.2	27

Additional results:
SMILES	A1 inh	LANA-H2A inh	Vif A3G	Calb FLC	MLL AF4-AF9 inh	T cruzi inh	RanGTP-Imp inh	Beta apoptosis
CC(C)C(c1nnnn1Cc1ccc(F)cc1)N1CCN(C(=O)c2ccco2)CC1 (stereo not drawn)	0.4	-0.6	-6%	-8	x	19	0.8	0
C=CCN1CCN(C(=O)c2cc3c(s2)CCC(CC)C3)CC1 (stereo not drawn)	0.0	5.1	-5%	0	-1.6	2	-2.0	3
COc1ccc2c(-c3ccccc3)cc(SCC(=O)N(C)C)nc2c1	-0.1	-5.6	x	14	-0.7	21	-1.4	-5
CN1CCN(c2ccccc2NC(=O)c2ccc([N+](=O)[O-])cc2Cl)CC1	0.0	-1.7	-6%	-5	11	32	-0.8	-4
COc1ccc(C(=O)Nc2sc(C)c(C)c2CN2CC(C)OC(C)C2)cc1 (stereo not drawn)	0.2	3.8	x	-1	-1.6	-9	-3.9	4
CCOc1ccc(S(=O)(=O)NCc2ccco2)cc1	0.6	2.8	23%	-6	x	-4	-2.8	6
COCCSc1nnc(-c2cccc(C#N)c2)n1C	-0.6	-2.7	3%	-3	x	-5	-5.6	0
CN(C)S(=O)(=O)N1CCC(Oc2ccc(C(=O)N3C[C@H]4CC[C@H]3C4)cc2)CC1	0.2	3.6	x	-4	-0.6	3	u	7
C/C(N)=C(\C#N)C(=O)NCc1ccccn1	-1.3	0.8	-3%	-3	x	7	5.6	0
CCc1ccc(C(=O)NNC(=O)CCc2nc3ccccc3c(=O)[nH]2)cc1	0.2	x	1%	-2	-1.4	-1	-0.7	-3
CCOC(=O)C1CCCCN1Cc1cc(Cl)ccc1O (stereo not drawn)	0.5	3.6	-4%	-3	x	-4	9.4	-5
CC(C)C(=O)NNC(=O)CSc1nc(C2CCCCC2)nc2ccccc12	0.0	0.8	x	-13	x	3	2.3	-6
Cc1cc(C)c2c(c1)c(C)cc1nnc(SCC(=O)c3cccs3)n12	-0.4	-1.1	-23%	2	x	5	-3.0	-2
O=C(COC(=O)C1CCC1)Nc1ccc(Cl)cn1	-0.4	0.7	-3%	x	0.0	x	x	-2
O=C(O)/C(=C1/OC(=O)c2ccccc21)c1ccccc1	-0.4	-1.8	19%	0	x	-13	1.8	0
COCCNC(=O)/C(C#N)=C/c1ccc(C(=O)O)cc1	0.0	8.8	x	-4	-2.3	-8	0.5	-3
COC(C(=O)Nc1ccccc1F)c1ccccc1 (stereo not drawn)	-0.3	0.1	5%	3	x	-3	0.0	-5
O=S(=O)(c1ccc(F)cc1)N1CCN(C(=S)NCC2CCCO2)CC1 (stereo not drawn)	0.5	2.5	-4%	3	-1.1	-13	5.9	-3
C/C(=C\C(=O)c1ccccc1)NCc1ccc(F)cc1	-0.3	-1.1	8%	-2	x	8	1.5	x
Cc1cc(NC(=O)COC(=O)C2CC2)ccc1Br	1.3	-0.1	-5%	x	-0.4	x	x	0
CC(=O)Nc1ccc(C(=O)NCCc2ccccc2)cc1	-1.2	1.6	x	-7	-0.1	-7	0.1	-7
COc1ccc(Nc2nc(Cl)nc(Nc3ccc(OC)cc3)n2)cc1	0.6	-1.1	8%	9	0.5	18	3.5	7
CCOc1cc(/C=N/NC(=O)CNc2ccc(C)cc2)ccc1OC(=O)c1ccccc1	0.4	-5.0	9%	9	x	-11	0.8	-4
O=C(/C=C/c1ccccc1Cl)Nc1cccc(O)c1	-7.4	-1.1	x	-4	-1.2	-14	-2.7	1
O=C(O)CCCCCNC(=O)Cn1nnc2ccccc2c1=O	-0.6	-5.4	-6%	-8	-7.7	-17	6.7	1
C=CCc1c(C)nc(-c2ccccc2)nc1N/N=C/c1ccncc1	-0.9	7.1	-6%	6	4.9	55*	1.4	2

Of the compounds above, these have an aryl thioether with sulfur outside any ring:
SMILES	A1 inh	LANA-H2A inh	Vif A3G	Calb FLC	MLL AF4-AF9 inh	T cruzi inh	RanGTP-Imp inh	Beta apoptosis
O=C(CSc1nnc(-c2ccncc2)n1-c1ccccc1)NCC1CCCO1 (stereo not drawn)	0.8	-3.7	x	x	-0.8	x	x	-5
O=C(O)CSc1ccccn1	0.4	-4.0	-4%	-8	x	-9	3.5	-7
CC(=O)Nc1ccc(NC(=O)CSc2nnc(-c3ccco3)n2Cc2ccco2)cc1	0.2	-1.8	4%	13	x	-2	-3.4	3
CC(C)(C)c1nc(SCC(=O)NC2CCCC2)c2ccccc2n1	0.1	-2.1	x	-15	-1.9	13	u	-4
COc1ccc2c(-c3ccccc3)cc(SCC(=O)N(C)C)nc2c1	-0.1	-5.6	x	14	-0.7	21	-1.4	-5
COCCSc1nnc(-c2cccc(C#N)c2)n1C	-0.6	-2.7	3%	-3	x	-5	-5.6	0
CC(C)C(=O)NNC(=O)CSc1nc(C2CCCCC2)nc2ccccc12	0.0	0.8	x	-13	x	3	2.3	-6
Cc1cc(C)c2c(c1)c(C)cc1nnc(SCC(=O)c3cccs3)n12	-0.4	-1.1	-23%	2	x	5	-3.0	-2
